Vaccinia inh: blocks a specific stage of Vaccinia orthopoxvirus infection, primary screen, cell-based, single point. 0.01% of 89,000 active. Vaccinia-infected cells, mCherry/Venus stage reporter fluorescence; active compounds read low; some inactives read as strong as hits. activity change (mCherry), % (test concentration not listed);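 active = mCherry past -33% and 40 or more points under the early reporter, replicates agreeing; inconclusive = past -33% without that gap or agreement; tested in A549 cells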;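 also: scaled between vehicle wells and reference inhibitor wells; 23 nL library stock went into each well; one replicate is shown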
Vaccinia inh Venus: recorded beside Vaccinia inh, whose call it bears; activity change (Venus), %; measured here: Venus reporter, other viral stage;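 negative = less Venus signal; first of two replicates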
The depositor's hits bear a star; ? = inconclusive; . = not tested or not shown. Not all compounds are listed (hit frequency here may not be typical).

Each structure is followed by: Vaccinia inh, Vaccinia inh Venus
- C[C@@H]1CN([C@H](C)CO)C(=O)Cc2cc(NS(C)(=O)=O)ccc2O[C@H]1CN(C)S(=O)(=O)c1cccs1
    18, 11
- COCC(=O)N1CC(=O)N2[C@H](CO)[C@H](c3ccc(C#CC4CC4)cc3)[C@H]2C1
    1, 2
- C[C@H](NC(=O)C[C@@H]1C[C@H]2c3cc(NS(C)(=O)=O)ccc3O[C@H]2[C@H](CO)O1)c1ccccc1
    -5, -4
- COc1cccc(C#Cc2ccc3c(c2)O[C@H](CN(C)C(=O)CN2CCOCC2)[C@@H](C)CN([C@@H](C)CO)S3(=O)=O)c1
    ?, .
- C[C@@H]1CCCCO[C@@H](CN(C)C(=O)Nc2ccccc2)[C@@H](C)CN([C@H](C)CO)C(=O)c2cc(NC(=O)CCCCCC(=O)Nc3ccccc3N)ccc2O1
    22, 8
- CN(C)C(=O)C[C@H]1CC[C@@H]2[C@H](COc3ccc(NC(=O)Nc4cccc(Cl)c4)cc3C(=O)N2C)O1
    1, -3
- Cc1ccccc1-c1ccc([C@H]2[C@H](CO)N3C(=O)CN(C(=O)NC4CCCC4)C[C@@H]23)cc1
    3, -16
- CCC(=O)N1[C@@H](CO)[C@@H](c2ccc(-c3ccc(C#N)cc3)cc2)C12CN(C(C)=O)C2
    -2, -3
- C[C@H](NC(=O)N(C)C[C@@H]1OCc2ccccc2-c2c(n(C)c3ccccc23)C(=O)N([C@@H](C)CO)C[C@H]1C)c1ccccc1
    ?, .
- C[C@@H]1CN([C@H](C)CO)C(=O)c2cc(NC(=O)CCC(F)(F)F)ccc2O[C@H]1CN(C)S(=O)(=O)c1cccs1
    26, 21
- O=C(Nc1ccc2c(c1)OCO2)N[C@H]1CC[C@H](CCNC(=O)C2CCC2)O[C@@H]1CO
    4, 1
- O=C(C[C@@H]1CC[C@H]2[C@@H](COC[C@H](O)CN2Cc2cc(F)ccc2F)O1)NCc1ccc(Oc2ccccc2)cc1
    ?, .
- C[C@H](O)C#Cc1ccc2c(c1)O[C@H](CN(C)C)[C@@H](C)CN([C@H](C)CO)S2(=O)=O
    8, 0
- CCCC#Cc1ccc([C@@H]2[C@@H](CO)N3C(=O)CN(C(=O)c4cccnc4)C[C@H]23)cc1
    -5, -12
- CC(C)C#Cc1ccc2c(c1)O[C@H](CN(C)C(=O)Cc1ccccn1)[C@@H](C)CN([C@H](C)CO)S2(=O)=O
    -4, -6
- O=C(c1ccncc1)N1CC(=O)N2[C@H](C1)[C@H](c1ccc(-c3ccccc3)cc1)[C@@H]2CO
    8, 6
- O=C(C[C@H]1C[C@H]2c3cc(NS(=O)(=O)c4ccc(F)cc4)ccc3O[C@H]2[C@H](CO)O1)NCCc1ccccc1
    -20, -17
- C[C@@H]1CN([C@H](C)CO)C(=O)Cc2cc(NC(=O)CCCN(C)C)ccc2O[C@@H]1CN(C)S(=O)(=O)c1ccccc1
    3, 2
- O=C(NCC[C@@H]1CC[C@@H](NS(=O)(=O)c2cccc(F)c2)[C@@H](CO)O1)C1CCCCC1
    7, 1
- C[C@H]1CN([C@@H](C)CO)S(=O)(=O)c2ccc(C3=CCCCC3)cc2O[C@H]1CN(C)Cc1ccccc1F
    ?, .
- CCC(=O)N(C)C[C@@H]1Oc2cc(C#Cc3cccnc3)ccc2S(=O)(=O)N([C@@H](C)CO)C[C@@H]1C
    24, 2
- C[C@@H]1CN([C@H](C)CO)C(=O)c2c(c3ccccc3n2C)-c2ccccc2CO[C@@H]1CN(C)C(=O)Nc1cccc(C(F)(F)F)c1
    ?, .
- CC=Cc1ccc2n(c1=O)C[C@H]1[C@H](CO)[C@@H](C(=O)N[C@@H](C)c3ccccc3)[C@@H]2N1Cc1ccncc1 (mixture of isomers)
    -5, 6
- O=C(N[C@H]1CC[C@@H](CCNS(=O)(=O)c2ccc(Cl)cc2)O[C@H]1CO)c1cnccn1
    4, 5
- CC(=O)N1[C@H](CO)[C@H](c2ccc(C3=CCCC3)cc2)C12CN(C(=O)C1CC1)C2
    0, 6
- CC(=O)N1[C@@H]2c3ccc(-c4ccccc4)c(=O)n3C[C@H]1[C@H](CO)[C@H]2C(=O)Nc1ccccc1
    25, 8
- C[C@H](CO)N1C[C@H](C)[C@H](CN(C)Cc2cccc(F)c2)Oc2ncc(-c3ccccc3F)cc2C1=O
    -23, -14
- CN(C)CC(=O)N[C@H]1CC[C@@H](CC(=O)O)O[C@H]1CO
    10, 2
- C[C@@H]1CN([C@H](C)CO)C(=O)Cc2cc(NC(=O)CCCCCC(=O)Nc3ccccc3N)ccc2O[C@H]1CN(C)Cc1ccncc1
    -3, 2
- COc1ccc(CN(C)C[C@@H]2OCCCC[C@H](C)Oc3ccc(NS(=O)(=O)c4ccc(F)cc4)cc3C(=O)N([C@@H](C)CO)C[C@@H]2C)cc1
    ?, .
- C[C@H]1CCCCO[C@@H](CN(C)S(=O)(=O)c2cccs2)[C@@H](C)CN([C@@H](C)CO)C(=O)c2cc(NC(=O)C3CCCCC3)ccc2O1
    ?, .
- CCCNC(=O)N1CC(=O)N2[C@H](CO)[C@H](c3ccc(C#Cc4cccc(F)c4)cc3)[C@H]2C1
    16, 5
- C[C@H](CO)N1C[C@H](C)[C@H](CN(C)S(=O)(=O)c2ccccc2)OCCCC[C@H](C)Oc2ccc(NC(=O)c3ccccc3)cc2C1=O
    -10, -7
- CN(C)C(=O)C[C@H]1C=C[C@@H](NC(=O)C2CCOCC2)[C@@H](CO)O1
    8, 5
- C[C@@H]1CN([C@H](C)CO)C(=O)c2cc(NC(=O)Cc3cn(C)c4ccccc34)ccc2O[C@@H]1CN(C)C
    -3, 0
- CN(C)CC(=O)Nc1ccc2c(c1)[C@H]1C[C@H](CC(=O)NCCN3CCCCC3)O[C@H](CO)[C@H]1O2
    -9, -7
- C[C@@H]1CN([C@H](C)CO)S(=O)(=O)c2ccc(C#Cc3ccncc3)cc2O[C@H]1CN(C)C(=O)C1CCCCC1
    ?, .
- COC(=O)C[C@H]1CC[C@@H]2[C@H](COC[C@@H](O)CN2S(=O)(=O)c2ccccc2C)O1
    5, 6
- C[C@@H]1CCCCO[C@@H](CN(C)C(=O)Cc2ccccc2)[C@H](C)CN([C@@H](C)CO)C(=O)c2cc(N(C)C)ccc2O1
    -32, -34
- C[C@H]1CN([C@@H](C)CO)C(=O)c2cc(C#CCC3CCCC3)cnc2O[C@H]1CN(C)C(=O)CN(C)C
    -11, -5

One compound at a time, as listed above:
Entry for COc1ccc(CN(C)C[C@@H]2OCCCC[C@H](C)Oc3ccc(NS(=O)(=O)c4ccc(F)cc4)cc3C(=O)N([C@@H](C)CO)C[C@@H]2C)cc1 → Vaccinia inh: ?; Vaccinia inh Venus: .
Entry for CC(=O)N1[C@H](CO)[C@H](c2ccc(C3=CCCC3)cc2)C12CN(C(=O)C1CC1)C2 → Vaccinia inh: 0; Vaccinia inh Venus: 6

(continued)
Each structure is followed by: Vaccinia inh, Vaccinia inh Venus
- C[C@@H]1CN([C@H](C)CO)S(=O)(=O)c2ccc(-c3ccncc3)cc2O[C@H]1CN(C)C(=O)c1cccc(F)c1
    28, 8
- C[C@@H]1CN([C@H](C)CO)C(=O)c2cc(NS(=O)(=O)c3ccc(F)cc3)ccc2O[C@@H](C)CCCCO[C@@H]1CN(C)S(=O)(=O)c1ccc(Cl)cc1
    -18, -7
- Cc1ccc(S(=O)(=O)N(C)C[C@@H]2OCCCC[C@@H](C)Oc3ccc(NS(=O)(=O)c4cn(C)cn4)cc3C(=O)N([C@H](C)CO)C[C@@H]2C)cc1
    14, 8
- O=C(c1cccc(F)c1)N1CC2(C1)[C@@H](c1ccccc1)[C@H](CO)N2Cc1ccccn1
    3, 7
- C[C@H]1CN([C@@H](C)CO)C(=O)Cc2cc(NC(=O)Nc3ccc(F)cc3)ccc2O[C@@H]1CN(C)Cc1ccc(Cl)c(Cl)c1
    ?, .
- COc1ccc(CN2C[C@@H](C)[C@@H](OC)CN(C)C(=O)c3cc(NC(=O)c4nc5ccccc5s4)ccc3OC[C@@H]2C)cc1
    -1, 1
- COc1cccc(-c2ccc3n(c2=O)C[C@H]2[C@H](CO)[C@@H](C(=O)NC4CCC4)N(S(C)(=O)=O)[C@@H]32)c1
    10, 5
- C[C@H](CO)N1C[C@H](C)[C@H](CN(C)C(=O)Nc2ccc3c(c2)OCO3)Oc2c(NS(C)(=O)=O)cccc2C1=O
    3, 8
- O=C(Nc1cccc(F)c1)N1C[C@@H]2[C@H](c3ccccc31)[C@@H](CO)N2C(=O)c1ccccn1
    8, 15
- COC(=O)C[C@H]1C[C@H]2c3cc(NC(=O)Nc4ccccc4)ccc3O[C@H]2[C@@H](CO)O1
    13, 17
- C[C@@H]1CCCCO[C@H](CN(C)C(=O)Nc2ccc3c(c2)OCO3)[C@@H](C)CN([C@@H](C)CO)C(=O)c2cc(NC(=O)CCCN(C)C)ccc2O1
    -1, -7
- Cc1ccc(S(=O)(=O)N(C)C[C@@H]2Oc3ccc(NC(=O)CCCCCC(=O)Nc4ccccc4N)cc3CC(=O)N([C@H](C)CO)C[C@H]2C)cc1
    27, 41
- Cc1cccc(S(=O)(=O)N2CC[C@H]3[C@@H](CO)N(C)c4ccc(Br)cc4[C@H]32)c1
    -23, -25
- COc1ccc(S(=O)(=O)Nc2ccc3c(c2)C(=O)N([C@H](C)CO)C[C@H](C)[C@H](CN(C)Cc2ccc(-c4ccccc4)cc2)O3)cc1
    -20, -11
- CC(=O)N1[C@H](CO)[C@@H](c2ccccc2)[C@H]1CN(CC(C)C)C(=O)c1ccccn1
    12, 7
- CO[C@H](CN(C)C(=O)c1cnccn1)[C@H](C)CN([C@H](C)CO)S(=O)(=O)c1ccc(F)cc1
    11, 16
- CC(=O)N(C)C[C@H]1Oc2cc(-c3ccc(C#N)cc3)ccc2S(=O)(=O)N([C@@H](C)CO)C[C@@H]1C
    23, 21
- COc1cccc(C#Cc2ccc([C@@H]3[C@@H](CO)N4C(=O)CN(C(=O)c5ccccc5)C[C@@H]34)cc2)c1
    -35, -39
- NCC[C@H]1CC[C@H](NC(=O)C2CCCC2)[C@@H](CO)O1
    4, 8
- COc1ccc2c3c(n(C)c2c1)[C@H](CO)N(C(=O)c1ccc(F)cc1)CC31CCN(CC2CCOCC2)CC1
    -5, -10

Random excerpt: six entries already listed, in no set order.
Each structure is followed by: Vaccinia inh, Vaccinia inh Venus
- C[C@H](CO)N1C[C@H](C)[C@H](CN(C)C(=O)Nc2ccc3c(c2)OCO3)Oc2c(NS(C)(=O)=O)cccc2C1=O
    3, 8
- O=C(Nc1cccc(F)c1)N1C[C@@H]2[C@H](c3ccccc31)[C@@H](CO)N2C(=O)c1ccccn1
    8, 15
- Cc1ccc(S(=O)(=O)N(C)C[C@@H]2OCCCC[C@@H](C)Oc3ccc(NS(=O)(=O)c4cn(C)cn4)cc3C(=O)N([C@H](C)CO)C[C@@H]2C)cc1
    14, 8
- COc1cccc(C#Cc2ccc([C@@H]3[C@@H](CO)N4C(=O)CN(C(=O)c5ccccc5)C[C@@H]34)cc2)c1
    -35, -39
- Cc1cccc(S(=O)(=O)N2CC[C@H]3[C@@H](CO)N(C)c4ccc(Br)cc4[C@H]32)c1
    -23, -25
- COc1ccc(CN2C[C@@H](C)[C@@H](OC)CN(C)C(=O)c3cc(NC(=O)c4nc5ccccc5s4)ccc3OC[C@@H]2C)cc1
    -1, 1

(further entries)
Each structure is followed by: Vaccinia inh, Vaccinia inh Venus
- CCCNC(=O)N1C[C@H]2[C@@H](c3ccccc31)[C@@H](CO)N2C(=O)Nc1ccccc1
    -4, -3
- O=C(C1CCCC1)N1CC(=O)N2[C@H](C1)[C@@H](c1ccc(-c3cccnc3)cc1)[C@@H]2CO
    14, 12
- Cc1cccc(-c2ccc([C@@H]3[C@@H](CO)N4C(=O)CN(C(=O)c5cccnc5)C[C@@H]34)cc2)c1
    -21, -20
- C[C@@H]1CCCCO[C@H](CN(C)CC2CCCCC2)[C@H](C)CN([C@@H](C)CO)C(=O)c2cc(NC(=O)Cc3ccccc3)ccc2O1
    ?, .
- Cc1ccc(S(=O)(=O)N(C)C[C@@H]2OCCCC[C@H](C)Oc3ccc(NS(=O)(=O)c4ccc(Cl)cc4)cc3C(=O)N([C@@H](C)CO)C[C@@H]2C)cc1
    -29, -7
- Cc1ccc(S(=O)(=O)Nc2ccc3c(c2)CC(=O)N([C@H](C)CO)C[C@@H](C)[C@H](CN(C)Cc2ccncc2)O3)cc1
    7, 3
- Cc1cc(C(=O)Nc2cccc3c2O[C@H](CN(C)S(=O)(=O)c2ccccc2)[C@@H](C)CN([C@H](C)CO)C3=O)n(C)n1
    16, 22
- C[C@H]1CN([C@@H](C)CO)S(=O)(=O)c2ccc(C#Cc3cccc(F)c3)cc2O[C@H]1CN(C)CC1CC1
    ?, .
- Cc1ccc(S(=O)(=O)N[C@@H]2CC[C@H](CCNC(=O)Nc3ccc(Cl)cc3)O[C@@H]2CO)cc1
    -26, -25
- C[C@@H]1CN([C@H](C)CO)C(=O)c2cc(NC(=O)NC3CCCCC3)ccc2O[C@@H]1CN(C)C(=O)Nc1ccccc1
    19, 8
- O=C(Cc1cccnc1)N1CC2(C1)[C@H](c1ccccc1)[C@@H](CO)N2C(=O)C1CC1
    5, 0
- CN1C(=O)c2cc(NS(=O)(=O)c3ccc(F)cc3)ccc2OC[C@@H]2O[C@H](CC(=O)NCC(F)(F)F)CC[C@H]21
    24, 8
- O=C(C[C@H]1C=C[C@@H](NC(=O)c2cccnc2)[C@@H](CO)O1)NCCN1CCCCC1
    3, -3
- O=C(C1CC1)N1CC2(C1)[C@H](c1ccccc1)[C@@H](CO)N2CC1CCCC1
    0, 3
- CC(C)NC(=O)N1CC[C@@H]2[C@H]1c1cc(-c3ccccc3)ccc1N(C)[C@H]2CO
    -9, -21
- CN(C)C(=O)C[C@H]1C[C@H]2c3cc(NC(=O)C4CCOCC4)ccc3O[C@H]2[C@@H](CO)O1
    10, 2

High-throughput results: PubChem BioAssay, Broad Institute
